Screening data: PubChem, several laboratories
PrP UTR inh: inhibition of PrP 5' UTR reporter expression. cell-based PrP 5' UTR mRNA reporter, plate reader. inhibition, % (test concentration not listed). hit rate 0.35% among 340,000. AID 488862, 2010;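 active = every replicate at 50% or more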;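 note: 0 = median of the neutral control wells; tested in H4 reporter cells; numbers are from one replicate; inactives centre near -14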
BJeLR viability: MLPCN primary cell-based screen for lethality selective to Ras in HRASV12 cells | BJeLR (HRASV12) viability, CellTiter-Glo ATP luminescence, 48 h; reference of the scale not given here | hit rate 0.17% among 300,000 | inhibition, % (no concentration beside the values);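 active = replicate mean above 50%; inconclusive = above 50% but judged a plate artefact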;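 note: 50 nL library stock added to about 25 µL; numbers are from one replicate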
Mtb hypoxia rep: PubChem AID 1159583 | M. tuberculosis hypoxia-regulated fluorescent reporter, fluorescence | fluorescence inhibition, % (no concentration beside the values) | hit rate 0.1% among 300,000;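 active = 35 to 45% if threefold the growth effect, above 45% if 1.5-fold the growth effect; inactive = the rest, general growth blockers included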;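 note: wells of about 50 µL received 100 nL stock; 0% = vehicle wells and 100% = reference inhibitor wells; whole bacteria with a GFP reporter of the hypoxia response; strong numbers were not always called active; many hits fall short of the cut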
ugtP null kill: growth inhibition of ugtP-null S. aureus, primary screen, RN4220 ugtP deletion, OD600; 16 h; some inactives read as strong as hits; growth inhibition, % (no concentration beside the values); hit rate 0.54% among 330,000;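 active = z-score under -3 and OD600 up to 0.15 on both plates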;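 note: plate controls were untreated wells for no effect and antibiotic for full effect; wells of about 80 µL received 100 nL stock; the first replicate is given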
Bead autofluor: compound fluorescence in toxin protease inhibitor counterscreen. compound autofluorescence counterscreen, microsphere flow cytometry; active compounds read high. fluorescence intensity (no concentration beside the values). hit rate 3.1% among 360,000;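 active = at least 3 SD above the mean of all compounds, about 16000 in these data; inconclusive = too few beads counted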;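 note: 100 nL of 1 mM stock went into each well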
RN4220 kill: growth inhibition of S. aureus RN4220, primary screen, OD600; hit rate 0.33% among 330,000; 16 h; inhibition, % (test concentration not listed); AID 1259311, 2017;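 active = z-score of -3 or lower and OD600 up to 0.18 on both plates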;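 note: plate controls were untreated cells for no effect and reference antibiotic for full effect; stock transfer was 100 nL into about 80 µL; one replicate is shown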
Mtb hypoxia rep growth: also measured in Mtb hypoxia rep; calls as there; growth inhibition, %; measured here: M. tuberculosis growth (absorbance);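 0% = vehicle and 100% = reference antibiotic; read after six days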
Numbers without * were called inactive; ? = inconclusive; . = not tested or not shown.

SMILES	PrP UTR inh	BJeLR viability	Mtb hypoxia rep	Mtb hypoxia rep growth	ugtP null kill	Bead autofluor	RN4220 kill
O=c1ccc2cc(S(=O)(=O)N3CCN(c4cc(Cl)ccc4Cl)CC3)ccc2o1	-23	-8	5	10	-3	10852	4.3
CCOc1ccc(OCC)c(NC(=O)Cn2cccc2)c1	-36	-1	-12	-4	-1	11356	0.3
Cc1cccc(C)c1OCC(=O)N/N=C/c1ccncc1	-5	3	.	.	.	2096	.
CN(CC(=O)Nc1ccccc1Cl)C(=O)COC(=O)Cc1ccc(F)cc1	-3	-3	5	9	2	5693	-1.1
CN(C)N1C(N)=C(C#N)C(c2cccc([N+](=O)[O-])c2)C2=C1CC(C)(C)CC2=O (stereo unspecified)	-19	16	2	-1	10	3852	0.4
Cc1cc2[nH]c(=O)c3ccccc3n2n1	11	0	5	-2	4	6644	1.0
O=C(CSCc1ccc(Cl)cc1)Nc1ccc2c(c1)OCO2	-20	2	.	.	5	4049	-1.0
CCC(C)(C)NC(=O)CN(Cc1ccc(OC)cc1)C(=O)CCC(=O)Nc1nccs1	1	2	-1	1	0	3729	2.2
O=C(N1CCC(n2nc(-c3ccccc3)oc2=O)CC1)C1(c2ccccc2)CC1	-6	1	4	1	5	4220	2.4
CC1C=C(C(=O)N2CCN(Cc3ccc4c(c3)OCO4)CC2)OC(OCCCCO)C1 (stereo unspecified)	.	.	-2	-4	1	.	4.2
O=C(CNC(=O)c1ccccc1O)NN=Cc1cc(Br)ccc1OC(=O)C=Cc1ccco1	.	.	3	8	-2	.	-7.0
Cc1c(C2N3CC4(C)CN2CC(C)(C3)C4=O)c2ccccc2n1C (stereo unspecified)	-19	-2	16	7	4	22039*	3.6
Cc1n[nH]c(C)c1S(=O)(=O)N1CCN(S(=O)(=O)c2cccc(F)c2)CC1	-29	.	0	-1	6	.	5.6
COc1ccc2c(c1)[nH]c1c(=O)n(Cc3ccco3)cnc12	-36	-7	.	.	.	3644	.
C/C(N)=C(/C#N)C(=O)CSc1nc2ccccc2c(=O)n1Cc1ccc(C)cc1	-6	1	1	2	-26	3523	-7.0
CC(C)c1ccc(/C=N/n2nnnc2Nc2ccccc2)cc1	-18	4	.	.	.	2818	.
CCN1C(=O)C2C(c3ccc(C)cc3)N3C(=O)N(c4ccccc4)C(=O)[C@@]3(Cc3ccccc3)C2C1=O (stereo partly specified)	.	.	-8	-5	-1	.	0.4
Cc1c(C(=O)OCC(C)C)[nH]c2c1C(=O)CC(c1ccco1)C2 (stereo unspecified)	70*	30	.	.	.	5939	.
COc1ccccc1CNC(=O)c1ccccc1SCC(=O)NCc1ccco1	-17	.	2	-5	8	4702	-8.3
CCOc1ccc(NC(=O)CCn2nc(C)c(S(=O)(=O)N3CCCCC3)c2C)cc1	-23	-6	14	5	2	5188	6.2
COCCN1Cc2cccc(C(=O)Nc3cccc(-c4nc5ccccc5[nH]4)c3)c2C1=O	-42	20	8	4	3	6057	13
CSCCC(NC(=O)c1ccccc1Cl)C(=O)N1CCN(C(c2ccccc2)c2ccccc2)CC1 (stereo unspecified)	-2	6	5	10	12	6577	-4.8
Cc1cc(C(=O)NNC(=O)CCC2CCCCC2)c(C)o1	-18	-8	10	-1	1	5732	3.3
COc1ccccc1NC(=O)COC(=O)COc1cccc2c1OC(C)(C)C2	-16	-2	7	8	4	6284	3.6
CCc1sc(C(=O)N2CCc3ccccc32)cc1C	-136	5	11	-1	-1	3443	7.3

Remaining list, next part.
SMILES	PrP UTR inh	BJeLR viability	Mtb hypoxia rep	Mtb hypoxia rep growth	ugtP null kill	Bead autofluor	RN4220 kill
Cc1ccc2c(c1)N(CC(=O)N1CCCCC1C)C(=O)CO2 (stereo unspecified)	-21	-10	7	-4	2	3644	1.1
O=C1CCC(=O)N1c1ccc(NCCc2cccc(F)c2)c([N+](=O)[O-])c1	-12	15	11	2	6	4828	5.3
O=C(Cn1c(=S)[nH]c2ccccc2c1=O)N1CCC2(CC1)OCCO2	-14	.	8	14	-3	24695*	-0.8
CC1(C)CC(=O)C2=C(C1)N(c1cccc(O)c1)C1=C(C2)C(=O)CC(C)(C)C1	-11	-4	.	.	3	2882	-0.1
CC(C)C(=O)N1CCC(n2nccc2NC(=O)CCc2ccccc2)CC1	-3	9	0	-9	9	4306	4.7
Nc1[nH]nc2ncc3cc4ccccc4nc3c12	1	0	9	10	1	4242	1.5
CN(C1=C(N2CCOCC2)C(=O)c2ccccc2C1=O)c1ccccc1	-43	22	-3	13	13	8687	17
CN(C)c1ncnc2sc(-c3ccccc3)cc12	-19	6	2	-3	2	4229	8.9
Nc1cc(C(F)(F)F)ccc1N1CCOCC1	-28	-17	7	-1	1	4032	0.4
COc1ccc(C(=O)N(C)C2CCN(C)CC2)cc1S(=O)(=O)Nc1cc(Cl)ccc1Cl	.	3	-4	2	17	.	7.6
COc1ccc(N2C(=O)C3C4C=CC(C4)C3C2=O)nn1 (stereo unspecified)	-7	-9	2	2	4	4245	8.6
CCc1cc2c(=O)c(-c3nc4ccccc4n3C)c(C(C)C)oc2c(CN2CCN(C)CC2)c1O	-36	11	2	4	3	20753*	-2.6
CCCc1cc(C(=O)Nc2sc(C(C)=O)c(C)c2C(=O)OCC)no1	1	4	2	4	-3	6676	-7.7
O=C(c1ccc([N+](=O)[O-])cc1)N1CCOCC1	11	.	-1	-3	-3	3084	-1.7
O=C1c2cccc(Cl)c2C(=O)c2c1cccc2N1CCCC1	6	4	17	11	7	2837	2.0
CCOC(=O)c1c(C)[n+](-c2ccc(C)cc2)c(CC)c2cc(OC)c(OC)cc12	.	-3	-5	1	5	3492	3.8
CNc1nc2c(C)cccn2c(=O)c1C=NCc1ccccc1	78*	2	-77	-16	0	10492	2.1
CC(=NNC(=O)CCCNc1cccc(C)c1)c1ccncc1	.	.	16	-3	4	.	6.8
Cn1cnc2cc(NCc3ccc(Cl)cc3)ccc21	-30	-6	9	4	5	3790	4.6
Cc1nn(-c2ccccc2)c(NC(=O)c2cccs2)c(-c2ccccc2Cl)c1=O	.	4	-12	-13	-4	5878	-2.3
CNc1ccc2nc3ccccc3[n+](C)c2c1	-32	21	.	.	.	3646	.
C#CCOCCOCCOCCNc1nc(N2CCN(C(=O)[C@H]([C@@H](C)CC)n3cc([C@@H](N)CO)nn3)CC2)nc(N2CCN(C(=O)[C@H](Cc3ccc(O)cc3)n3cc([C@@H](N)CC(C)C)nn3)CC2)n1	-5	1	.	.	.	4411	.
CCOC(=O)N1CCN(C(=O)c2cc(OCC)c(OCC)c(OCC)c2)CC1	-5	-2	10	1	-3	3005	1.7
COC(=O)CSc1ccc(S(=O)(=O)N2CCCCCC2)cc1[N+](=O)[O-]	-13	5	7	8	7	4390	2.4
O=C(COc1ccccc1)Nc1nnc(-c2ccc(Cl)cc2)o1	-9	-6	4	4	-1	5380	13

Carrying on:
SMILES	PrP UTR inh	BJeLR viability	Mtb hypoxia rep	Mtb hypoxia rep growth	ugtP null kill	Bead autofluor	RN4220 kill
COc1cccc(OC)c1C(=O)Nc1ccc(S(=O)(=O)Nc2ncccn2)cc1	-15	-3	25	4	3	.	2.8
CS(=O)(=O)c1ccc(C(=O)NCCN2C(=O)S/C(=C\c3cccnc3)C2=O)cc1[N+](=O)[O-]	-36	-1	0	6	6	4837	6.2
COc1ccc(-n2c(O)c(C=NCC(c3ccco3)N3CCCC3)c3ccccc3c2=O)cc1OC (stereo unspecified)	-17	9	-14	-6	-3	3696	1.7
CCCN(CC(=O)Nc1ccccc1C)C(=O)C1CCN(c2ncnc3sc(C)c(C)c23)CC1	-14	0	-9	1	1	?	2.9
Cc1ccc(C)c(NC(=S)NC(NC(=O)N(C)C)C(Cl)(Cl)Cl)c1 (stereo unspecified)	-7	5	-8	13	-8	9193	-0.3
COc1cc(C(=O)OC(C)c2ccc(F)cc2)ccc1OCC(=O)N1CCOCC1 (stereo unspecified)	-1	.	-1	0	8	5869	4.3
COc1nccnc1NS(=O)(=O)c1ccc(N=Cc2c(C)[nH]n(-c3ccc(Cl)cc3)c2=O)cc1	.	15	8	18	7	.	8.5
CN1CCN(c2ccc(NC(=O)c3ccco3)cc2Cl)CC1	-60	1	13	1	1	5980	1.6
O=C(CCNS(=O)(=O)c1ccccc1C(F)(F)F)N1CCN(S(=O)(=O)c2cccc(F)c2)CC1	-13	6	7	7	3	5678	0.3
C#CCOC1CC(n2cnc3c(=O)[nH]c(NC(=O)C(C)C)nc32)OC1CO (stereo unspecified)	.	.	-2	-3	2	.	2.3
CCOc1ccccc1CN1CCN(CCCc2ccccc2)CC1CCO (stereo unspecified)	-8	7	-9	1	-4	4030	-3.8
Cc1cc([N+](=O)[O-])cc2c1NC(=O)C2(O)N1CCOCC1 (stereo unspecified)	-32	-3	11	22	2	2215	3.8
COc1ccc(CC(=O)N2N=C(C)CC2(O)c2cccnc2)cc1OC (stereo unspecified)	-12	8	4	0	5	2098	3.5
COc1ccc(C(=O)NCCOc2cccc(OC)c2)cc1	-15	-1	12	6	10	2399	2.7
CC(=NN1C(=O)c2ccccc2NC1c1ccco1)c1ccccc1O (stereo unspecified)	.	.	7	19	5	.	7.5
CCCCN(C(=O)C1=NN(c2ccccc2)C(=O)CC1)c1c(N)n(CCC)c(=O)[nH]c1=O	-3	.	2	-2	0	3755	0.8
CCCCOC(=O)Nc1nnc(COc2ccccc2)s1	-5	-13	4	7	0	16850*	6.1
CCc1cc2c(=O)c(-c3cscn3)coc2c(CN(C)C)c1O	-1	3	.	.	2	4975	6.7
C=CCN(c1ccc(C(=O)NCCCn2ccnc2)cc1)S(C)(=O)=O	-19	-6	-5	-6	3	4111	3.5
Cc1cccc(-n2c(SC(C)C(=O)O)nc3sc4c(c3c2=O)CCCC4)c1 (stereo unspecified)	-16	-8	-14	8	1	3288	-7.7
c1ccc(OCCCCN2CCCCC2)cc1	-26	3	12	6	5	4171	3.7
Cn1c(=O)oc2cc(S(=O)(=O)Nc3ccccc3)ccc21	-20	-3	3	1	3	5662	5.8
O=C(O)CC1SC(=NN=C2CCCCCC2)N(c2ccccc2)C1=O (stereo unspecified)	.	.	5	-5	-8	.	1.3
Cn1c(=O)c(NCCc2ccccc2)c2c3c(cccc31)C(=O)c1ccccc1-2	-7	0	-32	9	17	9014	27
COc1ccc(NC(=O)c2ccco2)cc1NC(=O)c1ccccc1	2	-12	-12	-3	-1	5880	3.5

Further compounds follow.
SMILES	PrP UTR inh	BJeLR viability	Mtb hypoxia rep	Mtb hypoxia rep growth	ugtP null kill	Bead autofluor	RN4220 kill
Cc1cc(C)c(NC(=O)CNC(=O)COC(=O)C2=COCCO2)c(C)c1	-18	-2	0	-4	11	?	5.3
O=C(Nc1ccccc1)SC1CCCCC1	-53	.	7	0	38	3820	2.1
CCCCC1CCCC12NC(=O)NC2=O (stereo unspecified)	-16	4	3	-3	-6	4504	4.6
COC(=O)C1=C(c2cc3ccccc3s2)C[C@@H]2CC[C@H]1N2C(=O)NCCNC(C)=O	-7	12	.	.	.	2898	.
c1csc(Cc2nc3ccccc3[nH]2)c1	-12	4	17	0	3	8056	3.2
NC(=O)c1ccc(NC(=O)c2ccc(CN3CCOCC3)cc2)cc1	-26	-8	1	8	0	9789	3.8
N#CCCN(C(=O)CN1c2cccc3cccc(c23)S1(=O)=O)c1ccccc1	-17	.	2	0	0	3118	3.4
CC(=NNC(=O)Cn1nc(C)c(Br)c1C)c1cccs1	.	.	0	7	8	.	4.3
Cc1nn(C)c(C)c1S(=O)(=O)N(CC(=O)NCCCN1CCC(C)CC1)c1ccc(C(C)C)cc1	-11	3	2	-1	2	4467	-0.7

In another format: 7 of the compounds above.
Structure | PrP UTR inh | BJeLR viability | Mtb hypoxia rep | Mtb hypoxia rep growth | ugtP null kill | Bead autofluor | RN4220 kill
CCCCC1CCCC12NC(=O)NC2=O (stereo unspecified) | -16 | 4 | 3 | -3 | -6 | 4504 | 4.6
COC(=O)C1=C(c2cc3ccccc3s2)C[C@@H]2CC[C@H]1N2C(=O)NCCNC(C)=O | -7 | 12 | . | . | . | 2898 | .
c1csc(Cc2nc3ccccc3[nH]2)c1 | -12 | 4 | 17 | 0 | 3 | 8056 | 3.2
NC(=O)c1ccc(NC(=O)c2ccc(CN3CCOCC3)cc2)cc1 | -26 | -8 | 1 | 8 | 0 | 9789 | 3.8
N#CCCN(C(=O)CN1c2cccc3cccc(c23)S1(=O)=O)c1ccccc1 | -17 | . | 2 | 0 | 0 | 3118 | 3.4
CC(=NNC(=O)Cn1nc(C)c(Br)c1C)c1cccs1 | . | . | 0 | 7 | 8 | . | 4.3
Cc1nn(C)c(C)c1S(=O)(=O)N(CC(=O)NCCCN1CCC(C)CC1)c1ccc(C(C)C)cc1 | -11 | 3 | 2 | -1 | 2 | 4467 | -0.7
